Screening data deposited in PubChem BioAssay by Southern Research Specialized Biocontainment Screening Center.
Mtb betalactam: beta-lactam sensitization of Mtb H37Rv | M. tuberculosis H37Rv growth with meropenem, percent inhibition; hits of this screen are not shown here | inhibition, % at 25 µM | 330,000 compounds, 0.27% hits | AID 434955;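 active = about 74% or more and at least 40 points above the plate without the antibiotic, then above 30% in a dose series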;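 also: growth measured after seven days incubation then overnight dye step; 0% = bacteria only wells and 100% = bacteria with antibiotic; twin plates without the antibiotic show which effects depend on it; some results filed as inactive read as strong as hits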
The depositor's hits bear a star; & = joins results of further samples. This is a subset, so the mix of outcomes need not match the whole.

SMILES	Mtb betalactam
CN1C[C@H](C(=O)N[C@]2(C)O[C@@]3(O)[C@@H]4CCCN4C(=O)[C@H](Cc4ccccc4)N3C2=O)CC2c3cccc4[nH]cc(c34)C[C@H]21 (stereo partly drawn)	-0.5&5.2
CCCn1c(N)c(N2CCCCC2)c(=O)n(CC(=O)Nc2cccc(S(=O)(=O)N(C)C)c2)c1=O	4.6
Cn1c(-c2ncc(F)cc2F)cc2onc(-c3c(F)cccc3Cl)c2c1=O	2.6
N#Cc1c(SCc2c(Cl)cccc2Cl)nc(N)[nH]c1=S	1.6
CN1CCN(S(=O)(=O)c2ccc(Nc3cccc(Cl)c3)c([N+](=O)[O-])c2)CC1	-3.9
C[C@H](CO)N1C[C@H](C)[C@@H](CN(C)S(=O)(=O)c2cn(C)cn2)Oc2ccc(NC(=O)NC3CCCCC3)cc2C1=O	-5.9
O=C(CSc1nnc(-c2ccccc2F)n1C1CC1)NCc1ccco1	0.0
COc1ccc(Br)cc1CN(C)CC(=O)Nc1cccc(S(=O)(=O)N2CCCC2)c1	-10.1
O=S(=O)(c1ccc2c(c1)OCCO2)N1CCN(S(=O)(=O)c2c(F)cc(F)cc2F)CC1	8.9
CCCn1c(SCC(=O)NCc2ccc3c(c2)OCO3)n[nH]c1=O	4.8
O=C(CC1C[C@H](C(=O)N2CCOCC2)[C@@]2(CCC3CCCC3)c3[nH]c4ccccc4c3CCN2C1=O)NCC12CC3CC(CC(C3)C1)C2 (stereo partly drawn)	-4.2
CC(OC(=O)C1=COCCO1)C(=O)NC1CCCCC1C (stereo not drawn)	-6.2
CN(Cc1cccnc1)C(=O)CNC(=O)COc1ccccc1	4.4
COc1ccccc1CNC(=O)C1CSC2(C)CCC(=O)N12 (stereo not drawn)	7.2
NS(=O)(=O)c1ccc(NC(=O)COC(=O)Cc2c[nH]c3ccccc23)cc1	-1.6
CN(Cc1ccc(Br)s1)C(=O)CNC(=O)c1ccc2c(c1)OCO2	8.9
CC(C)n1cnnc1SCC(=O)Nc1cccnc1Cl	-8.9
CCCCC1(C)NC(=O)N(CC(=O)Nc2ccc(Cl)cc2C)C1=O (stereo not drawn)	-7.4
CN(C)CC(C)(C)CNc1ccc(S(=O)(=O)N2CCCC2)cn1	-6.8
CC(=O)c1c(C)[nH]c(C(=O)COC(=O)c2cccnc2Cl)c1C	-3.2
Cc1c(C(=O)NCc2ccco2)oc2c(F)cccc12	0.4
O=C(O)C1(c2ccccc2)CCN(S(=O)(=O)c2cccc(Cl)c2)CC1	-4.1
Cc1nnc(SCC(=O)N2CCN(c3ccccc3)CC2)n1C1CC1	-8.3
CCN(CC(=O)Nc1cc(Cl)ccc1C)C(=O)CCS(=O)(=O)c1ccc(Cl)cc1	-5.7
CC(C)C(=O)Nc1nc(-c2ccc3c(c2)CCN3C(=O)C2CC2)cs1	2.7
CCOc1ccc(NC(=O)COC(=O)C2CC2C)cc1 (stereo not drawn)	-0.1
O=C(COC(=O)COc1ccccc1)NC1CCS(=O)(=O)C1 (stereo not drawn)	-1.7
COC(=O)C(Cc1c[nH]c2ccccc12)NC(=O)c1cccc(S(=O)(=O)N2CCCCC2)c1 (stereo not drawn)	-1.0
Cc1ccc(S(=O)(=O)N2CCOCC2)cc1C(=O)Nc1cccc(C(=O)NC2CC2)c1	-5.2
O=C(NCC(c1ccco1)N1CCCC1)c1cn(Cc2ccccc2)nc1-c1ccccc1 (stereo not drawn)	1.7
O=C(NC1CCCC1)C(c1ccccc1F)N(C(=O)c1csnn1)C1CC1 (stereo not drawn)	-3.5
CCc1ccccc1NC(=O)CNC(=O)CSC(=S)N1CCCC1	10.4
COc1cc(C(=O)NNC(=O)c2ccc3c(c2)OCCO3)cc(OC)c1OC	1.0
O=C1NC[C@H](c2ccccc2)OC(=O)[C@H](Cc2ccc(F)cc2)C/C=C\C[C@H]1CC(=O)N(CCO)Cc1ccccc1	-0.9
CCNCC(=O)N1c2ccccc2CCc2ccc(NC(=O)OC(C)C)cc21	93.5
Cc1ccc(C(=O)NCC(=O)OCC(=O)Nc2cc(S(=O)(=O)N3CCOCC3)ccc2Cl)s1	-1.9
COc1ccc(-c2c(NC(=O)c3ccco3)oc3ccccc3c2=O)cc1OC	-3.7
O=C(COC(=O)C1(c2ccccc2)CCCC1)N1CCNC1=O	4.9
O=C(COC(=O)c1c[nH]c2ccccc12)Nc1ccc(F)cc1	-8.3
CCN(CC(=O)Nc1c(F)cccc1F)C(=O)c1cnc(C)cn1	-0.4
COc1ccc(CC(=O)Oc2ccccc2[N+](=O)[O-])cc1	-2.9
CN(c1ccccc1)S(=O)(=O)c1cccc(NC(=O)CCNC(=O)c2ccc([N+](=O)[O-])cc2)c1	-4.9
Cc1ccc(C(=O)N2CCN(Cc3ccc4c(c3)OCO4)CC2)c(Cl)c1	3.4
O=C(Cc1cccc2ccccc12)NCC(=O)N1CCN(Cc2cccc(C(F)(F)F)c2)CC1	13.9
O=C1c2ccccc2C(=O)c2c1cccc2N1CCN(C/C=C/c2ccccc2)CC1	-15.8
Cc1ccc(NC(=O)c2ccc(COc3ccccc3[N+](=O)[O-])o2)nc1	-9.7
CCN(Cc1ccccc1)C(=O)CN1C(=O)NC2(CC(C)CC(C)(C)C2)C1=O (stereo not drawn)	-11.8
COc1ccc(NC(=O)c2ccccc2)cc1	7.5
O=C(CSc1cc(Cl)ccc1Cl)NCCN1C(=O)CSC1=O	0.4
O=C(COC(=O)COc1ccccc1)NC1CCCC1	-0.6
Cc1ccc(S(=O)(=O)N2[C@@H](c3ccc(C(C)(C)C)cc3)C(C(=O)O)=CC[C@H]2c2cccc(Cl)c2)cc1	3.8
O=C(c1ccc(F)cc1Cl)N(Cc1ccco1)C1CCS(=O)(=O)C1 (stereo not drawn)	-0.5
CCCC1(CCC)NC(=O)N(CC(=O)N2CCc3ccccc32)C1=O	-5.2
CN(CC(=O)Nc1ccc2c(c1)OCCO2)Cc1nc2ccccc2c(=O)[nH]1	-2.7
COc1ccc(C2=C(c3ccc(OC)c(OC)c3)CN3CCCCC3C2)cc1 (stereo not drawn)	0.0
O=C(NC(Cc1ccccc1)C(=O)O)/C(=C/c1ccc([N+](=O)[O-])cc1)NC(=O)c1ccc(Br)o1 (stereo not drawn)	-3.8
COc1ccc(/C=C/C(=O)Nc2ccc(S(=O)(=O)N3CCOCC3)cc2)c(OC)c1	-0.7
Cc1ccccc1C(=O)O[C@H]1[C@H](Cc2ccccc2)NS(=O)(=O)[C@H]2CC3C=C[C@]12O3	5.6
COc1cc2oc(=O)ccc2cc1-c1c(OC)ccc2ccc(=O)oc12	-2.4
CCCCNc1c(-c2ccc(OC)c(SC3CCCCC3)c2)nc2ccc(Cl)cn12	4.8

Carrying on.
SMILES	Mtb betalactam
COc1ccc(CC(=O)OCC(=O)Nc2ccc(N3CCOCC3)cc2)cc1	-14.6
O=C(CSc1ncccn1)Nc1ccc(Cl)c(S(=O)(=O)N2CCOCC2)c1	1.9
CCCn1c(N)c(N(CCOC)C(=O)CSc2ccccc2)c(=O)[nH]c1=O	-1.5
Nn1c(SCC(=O)NC2CCCc3ccccc32)nnc1C1CC1 (stereo not drawn)	-6.3
Cc1cc(-n2c(C)cc(C(=O)COc3cc(F)ccc3[N+](=O)[O-])c2C)no1	9.9
O=C1OC2(c3ccccc31)c1cc(I)c(O)c(I)c1Oc1c2cc(I)c(O)c1I	29.9
CCCCN(C(=O)c1ccc(C)o1)c1c(N)n(CC(C)C)c(=O)[nH]c1=O	-16.7
CCCNC(=O)N1[C@H]2CC[C@@H]1C(C(=O)OC)=C(c1ccc(C(C)=O)cc1)C2	4.3
O=C1CCC/C=C/C[C@H](CC(=O)N(CCO)Cc2ccccc2)C(=O)N[C@@H](Cc2ccccc2)CO1	10.2
O=C(CN1C(=O)NC2(CCCCCC2)C1=O)N1CCCCC1	1.2
O=C(COc1ccc(Cl)cc1)OCC(=O)c1ccc[nH]1	68.7
CC(C)OC(=O)C1Cc2ccccc2CN1S(=O)(=O)c1cccs1 (stereo not drawn)	-9.8
O=C(NCc1ccc(F)cc1)N1CCN(C(=O)c2ccccc2)CC1	-2.2
COc1ccccc1-n1cnnc1SC(C)C(=O)NCC1CCCO1 (stereo not drawn)	0.1
CN(C)C(=O)c1ccc(NC(=O)COC(=O)Cn2cc(C(F)(F)F)ccc2=O)cc1	-3.8
Cc1cc(C)c(NC(=O)CNC(=O)c2ccc3ncsc3c2)c(C)c1	3.9
Cc1c(C(=O)N2CCN(S(=O)(=O)c3cc(F)ccc3F)CC2)oc2ccccc12	-2.3
CCc1cc(=O)oc2c3c(cc(OCC(=O)NC4CC4)c12)OC(C)(C)CC3	-6.4
CCOc1cc(C)c(S(=O)(=O)NCCCn2ccnc2)cc1C	0.6
Cc1ccc2nc(N3C(=O)C(O)=C(C(=O)c4ccc(C)o4)C3c3ccc(O)cc3)sc2c1 (stereo not drawn)	56.9
COc1ccccc1N(C)S(=O)(=O)c1ccc(C(=O)Nc2ncc(C)s2)cc1	-3.2
C[C@H](CO)N1C[C@H](C)[C@@H](CN(C)S(=O)(=O)c2cn(C)cn2)Oc2c(NS(=O)(=O)c3ccc(F)cc3)cccc2C1=O	3.4
N#Cc1ccc(C(=O)Nc2cccc(S(=O)(=O)NC3=NCCC3)c2)cc1	-1.9
C/C(=N\NC(=O)c1cccc(S(=O)(=O)N2CCOCC2)c1)c1ccc(O)cc1	-1.1

Looked up above.
COc1ccccc1N(C)S(=O)(=O)c1ccc(C(=O)Nc2ncc(C)s2)cc1 in Mtb betalactam has -3.2
CCc1cc(=O)oc2c3c(cc(OCC(=O)NC4CC4)c12)OC(C)(C)CC3 in Mtb betalactam has -6.4

(listing goes on)
SMILES	Mtb betalactam
CCOc1cc(/C=C2\C(=N)N3N=C(C)SC3=NC2=O)ccc1OCCOc1cccc(OC)c1	-1.5
Cc1ccc(C(C)C)c(OCC(=O)NNC(=O)Cn2[nH]c(=O)c3ccccc3c2=O)c1	-4.5
CC(C)CN(C(=O)CSc1nnc2ccccn12)C1CCS(=O)(=O)C1 (stereo not drawn)	-4.8
O=c1oc(CCCO)cc2ccc(C#Cc3cccnc3)cc12	1.8
O=C(CN1C(=O)NC2(CCCCC2)C1=O)Nc1ccccc1N1CCCCC1	7.7
CC1CC(=O)Nc2ccccc2N1C(=O)CSc1ncnc2sccc12 (stereo not drawn)	0.5
CCN1CCN(S(=O)(=O)c2ccc(Cl)c(C(=O)NC3CCC(C)CC3)c2)CC1 (stereo not drawn)	10.0
COc1ccc(-c2c(C#Cc3ccsc3)c3cc(-c4ccc(OC)nc4)ccc3n2C)cc1	12.4
CCC(C(=O)OCC(=O)N1CCN(S(=O)(=O)c2ccc(C)cc2C)CC1)c1ccccc1 (stereo not drawn)	-3.5
O=C1NC(Cc2ccccc2)c2nc3ccc(Cl)cc3c(=O)n2-c2cc(Cl)ccc21 (stereo not drawn)	1.9
CN(C)CCCO[C@@H]1[C@H]2OC(C)(C)O[C@H]2O[C@@H]1[C@H](O)CO	3.2
COc1ccccc1/C=C/C(=O)Nc1cccc(S(=O)(=O)N2CCOCC2)c1	-3.9
COCCN(C(=O)COC(=O)/C=C/c1ccc2c(c1)OCO2)c1c(N)n(Cc2ccccc2)c(=O)[nH]c1=O	2.7
COc1ccc(C)cc1NC(C)C(=O)NC(=O)NC1CCCCC1 (stereo not drawn)	7.0
CCOC(=O)[C@H]1[C@H]2COc3ccc(Br)cc3[C@@H]2N2C(=O)c3cc(F)c(F)cc3NC(=O)[C@@]12C	96.8
O=S(=O)(Nc1ccc(S(=O)(=O)N2CCCC2)cc1)c1ccc(F)cc1F	-6.3
Cc1ccc(C(=O)Nc2ccc(C(=O)N/N=C/c3ccccn3)cc2)cc1	23.0
COc1ccc2c(c1)cc(C(=O)N[C@@H](CCSC)C(=O)N1CCC[C@H]1C(=O)O)n2C	3.3
CCN(CC)S(=O)(=O)c1ccc(N2CCOCC2)c(NC(=O)c2ccco2)c1	-0.4
CC1(C)C=Cc2c(ccc3c2OC[C@H](c2ccc(O)cc2O)C3)O1	17.4
COc1ccc(NC(=O)COC(=O)Cn2cnc3ccccc3c2=O)c(OC)c1	-5.3
CC(C)c1nc(SCC(=O)NC2CCCCC2)c2ccccc2n1	-0.3
O=C(O)/C(=C\c1cccc(C(F)(F)F)c1)c1ccc(S(=O)(=O)N2CCCC2)s1	-0.6
C/C=C/c1ccc(O)c(OC)c1	-2.2

Structural class, the entries above containing a thiophene ring, fused or not.
SMILES	Mtb betalactam
CN(Cc1ccc(Br)s1)C(=O)CNC(=O)c1ccc2c(c1)OCO2	8.9
Cc1ccc(C(=O)NCC(=O)OCC(=O)Nc2cc(S(=O)(=O)N3CCOCC3)ccc2Cl)s1	-1.9
CC(C)OC(=O)C1Cc2ccccc2CN1S(=O)(=O)c1cccs1 (stereo not drawn)	-9.8
CC1CC(=O)Nc2ccccc2N1C(=O)CSc1ncnc2sccc12 (stereo not drawn)	0.5
COc1ccc(-c2c(C#Cc3ccsc3)c3cc(-c4ccc(OC)nc4)ccc3n2C)cc1	12.4
O=C(O)/C(=C\c1cccc(C(F)(F)F)c1)c1ccc(S(=O)(=O)N2CCCC2)s1	-0.6

(listing goes on)
SMILES	Mtb betalactam
Cc1ccc(Nc2nnc(SC(C)C(=O)NC3CC3)s2)cc1 (stereo not drawn)	-0.4
Cc1ccc(OCC(=O)N/N=C/c2cccc3cccnc23)cc1	69.6
COC(=O)C1=C(c2ccc(-c3ccccc3)c(F)c2)C[C@@H]2CC[C@H]1N2C(=O)NCCNC(C)=O	-2.5
COc1ccc(C(=O)NCc2ccc(Cl)cc2)cc1S(=O)(=O)N1CCCC1	-4.8
O=C(Nc1ccc(N2CCOCC2)c(S(=O)(=O)Nc2ccccc2Cl)c1)c1ccccc1	2.1
CC(=O)c1ccc(OCCCC(=O)Nc2cccc(S(=O)(=O)N3CCOCC3)c2)cc1	4.2
Cc1ccc(C)c(S(=O)(=O)N2CCN(C(=O)c3ccc4ccccc4n3)CC2)c1	-7.4
CN(Cc1ccccc1)C(=O)CN1C(=O)c2ccccc2C1=O	-8.8

Arranged by length of the SMILES (rising): some entries from above.
SMILES	Mtb betalactam
Cc1ccc(OCC(=O)N/N=C/c2cccc3cccnc23)cc1	69.6
Cc1ccc(C)c(S(=O)(=O)N2CCN(C(=O)c3ccc4ccccc4n3)CC2)c1	-7.4
COC(=O)C1=C(c2ccc(-c3ccccc3)c(F)c2)C[C@@H]2CC[C@H]1N2C(=O)NCCNC(C)=O	-2.5
